# Rango-impB inh – Rango-importin beta binding inhibition; Q14974; Rango CFP/YFP FRET sensor + importin beta, 45 min; Potency, µM (series often up to 92.2 µM), for inactives: top-dose inhibition of complex formation; 0.031% of 340,000 active; active = rising FRET ratio curve, often small or poorly fitted; inconclusive = mostly compound fluorescence or quenching in the first reads; inactive = flat curves in all reads;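 note: potency is the fitted concentration of half-maximal effect; 0% = DMSO wells and 100% = buffer wells lacking importin beta; nearly all actives have a fitted effect of over 15% in size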
#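 FRET biosensor Rango (snurportin 1 IBB between N-terminal EYFP and C-terminal Cerulean), 50 nM in PBS/1 mM DTT/0.02% Tween-20/0.1% BSA, preincubated 5 min RT with compound; 0.125 microM importin beta added, 45 min RT, CFP/YFP FRET ratio read.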
# Rango dissoc inh – prevents RanGTP from dissociating the Rango-importin beta complex | O95149+P62826 | Biochemical FRET Rango-importin beta, RanGTP-induced dissociation | Potency, µM (highest dose often 46.1 µM), for the others: at the highest dose activity change, negative = inhibition | 0.071% of 340,000 active | AID 540253; active means falling FRET ratio curve, often poorly fitted, with flat reads before Ran was added; inconclusive means other falling curves, or compound fluorescence or quenching; inactive means flat or rising ratio curve;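 note: potency is the fitted concentration of half-maximal effect; % of control where 0% means no effect; nearly all actives have a fitted effect of over 45% in size; -100% = wells without RanGTP and RCC1; the record marks most hits as doubtful in a second field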
#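 Quantitative HTS using a FRET biosensor: 0.1 uM Rango, 0.25 uM importin beta, 0.6 uM Ran, 2 mM GTP, 0.2 uM RCC1 final, PBS with DTT, Tween-20 and BSA. Post-read taken 45 min after Ran addition.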
# miR-21 reporter – miR-21 reporter, rising signal; HeLa miR-21 FLuc reporter, luciferase, 48 h; Potency, µM (doses to about 38.3 µM), inactives show at the top dose reporter change, positive = more light; 340,000 tested, under 10 active; active = well fitted rising curve with a large enough effect; inconclusive = small, poorly fitted or top-dose-only effect; inactive = no such curve, though single readings can be large or run the other way;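 note: % of control where 0% means no effect; miR-21 action dims this reporter so a rising signal means less miR-21 action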
#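 Luminescence from a firefly luciferase reporter carrying a miR-21 binding site downstream, stably expressed under a CMV promoter in HeLa cells that make miR-21 endogenously, reports miRNA modulation after 48 h compound exposure up to approximately 40uM final.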
# GLA inh pH 4.5 – inhibitors of human alpha-galactosidase A at pH 4.5; P06280; purified enzyme, 4-MU-alpha-Gal fluorescence, pH 4.5; activity change, negative = inhibition, % at 105 µM; 230,000 tested, under 10 active; AID 1467; inconclusive = small, poorly fitted or top-dose-only inhibition, or a rising curve; inactive = flat fitted curve, though single readings scatter; no compound was filed as active;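 note: 0% = full activity with enzyme and -100% = basal without enzyme; dose as in the result columns while the protocol names 77 µM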
# Target sequence (P06280 whole entry, looked up): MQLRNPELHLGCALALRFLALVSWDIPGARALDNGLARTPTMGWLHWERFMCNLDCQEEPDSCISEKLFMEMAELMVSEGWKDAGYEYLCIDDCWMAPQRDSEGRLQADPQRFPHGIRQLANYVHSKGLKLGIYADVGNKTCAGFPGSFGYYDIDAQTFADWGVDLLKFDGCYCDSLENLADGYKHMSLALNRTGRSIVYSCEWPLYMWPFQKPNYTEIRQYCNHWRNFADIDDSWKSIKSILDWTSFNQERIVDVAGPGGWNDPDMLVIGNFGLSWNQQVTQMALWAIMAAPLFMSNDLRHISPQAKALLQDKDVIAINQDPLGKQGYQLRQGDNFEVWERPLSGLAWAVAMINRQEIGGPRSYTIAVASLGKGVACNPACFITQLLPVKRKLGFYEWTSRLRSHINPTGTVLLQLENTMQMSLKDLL
# * hit, by the source's call; ? = inconclusive; . = not tested or not shown; & = joins results of further samples. Only part of the results is shown (hit frequency here may not be typical).
Rango-impB inh,Rango dissoc inh,miR-21 reporter,GLA inh pH 4.5,mol
4.6%,27%,-5%,6,[O-]/C(=C(\C(=S)Nc1cccc2ccccc12)[n+]1ccccc1)c1ccc(Cl)s1
1.0%,3%,-2%,0,CCOC(=O)C1(CCCc2ccccc2)CCN(C(=O)CCOC)CC1
0.2%,2%,-13%,-3,Cc1nc2ccc3nc(NC(=O)c4ccc5c(c4)OCCO5)sc3c2s1
-1.8%,2%,-19%,0,Cc1cc(Cl)ccc1NNC(=O)c1cccs1
-0.1%,-41%,-17%,-5,CC1CCCCC1NC(=O)/C(C#N)=C/c1ccc2c(c1)OCCO2 (stereo not given)
7.3%,0%,4%,.,O=C1COc2ccc(S(=O)(=O)NCc3ccccc3)cc2N1
4.4%,20%,-40%,.,CN(C)c1ccc(NC(=S)NC23CC4CC(CC(C4)C2)C3)cc1
-0.6%,1%,.,.,CCC1(CC)NC(=O)N(CC(=O)OCc2nc3cc(C(=O)OC)ccc3c(=O)[nH]2)C1=O
1.6%,-3%,9%,8&-2&3,COc1ccc2c(c1OC)C(=O)O[C@@H]2[C@H]1c2c(cc3c(c2OC)OCO3)CCN1C
0.0%,1%,-3%,.,COc1ccc(CCC(=O)NC(C)c2ccccc2)cc1OC (stereo not given)
-2.8%,-13%,-30%,.,CSc1ccccc1OCc1cc(C(=O)N2CCN(c3ccccc3)CC2C)no1 (stereo not given)
-1.9%,13%,-16%,4,Cc1cc(Cl)ccc1OCC(=O)N1CC(C)CC(C)C1 (stereo not given)
-1.0%,-3%,-3%,-1,O=C(NC(=S)NC1CCS(=O)(=O)C1)c1cccs1 (stereo not given)
6.4%,-3%,.,.,C=C1CCN([C@@H](CC(C)C)C(=O)NCc2ccc(Cl)c(Cl)c2)S(=O)(=O)c2ccccc21
1.2%,-12%,-8%,-3,Cc1nc2ccc(C(=O)N3CCSCC3)cc2s1
-0.6%,4%,-4%,4,Cc1c(NC(=O)NCc2ccccc2)c(=O)n(-c2ccccc2)n1C
-0.3%,13%,1%,-8&-9&-15,CC(C)c1ccc2c(c1)c(SC(C)(C)C)c(CC(C)(C)C(=O)O)n2Cc1ccc(Cl)cc1
.,?,14%,-6,COc1cc(OC)c(-c2c3cc(O)c(=O)cc-3oc3cc(O)c(O)cc23)cc1OC
-0.7%,-11%,3%,1,COC(OC)c1ccc(C#N)c(SCc2ccccc2)n1
-2.5%,-16%,?,-2,O=C(c1ccc(-c2nc3ccccc3s2)s1)N1CCOCC1
0.3%,-6%,.,.,CCC/C=C1/CCCOC(C(=O)NCc2ccc(C)o2)(C(F)(F)F)C1 (stereo not given)
?,5%,-4%,.,CN(Cc1ccccc1)C1CCN(Cc2ccccc2[N+](=O)[O-])CC1
0.4%,0%,7%,-2,Cc1noc(C)c1S(=O)(=O)N1CCCC(C(=O)N2CCc3ccccc3C2)C1 (stereo not given)
-0.6%,-1%,-37%,6,C/C(=N\NC(=O)c1ccc(N(C)C)cc1)c1ccc(C)cc1C
0.5%,-23%,-3%,-7,O=C(COc1ccc(Cl)cc1Cl)Nc1ccc(CN2CCCCC2)cc1
-2.3%,12%,-7%,0,CCCCCC(=O)Nc1c(-c2ccc(OC)cc2)c(=O)c2ccccc2n1C
1.3%,-6%,-19%,-4,CN(C)c1ccc(Nc2nc(-c3cccnc3)cs2)cc1
?,0%,.,.,O=C(/C=C/c1ccccc1)Nc1cccc(C(=O)N2CCCC2)c1
0.0%,-16%,0%,.,CCOc1ccc(/C=N/NC(=O)c2nnn(-c3nonc3N)c2-c2cccs2)cc1
-5.0%,-12%,1%,-6,Cc1ccc2nc(Nc3ccccc3)c(/C=N/O)c(=O)n2c1

# As entered above.
# Reading of Cc1c(NC(=O)NCc2ccccc2)c(=O)n(-c2ccccc2)n1C in Rango-impB inh: -0.6%
# Reading of CN(Cc1ccccc1)C1CCN(Cc2ccccc2[N+](=O)[O-])CC1 in Rango dissoc inh: 5%

# (next part)
Rango-impB inh,Rango dissoc inh,miR-21 reporter,GLA inh pH 4.5,mol
1.5%,0%,-3%,-1,COc1cccc(OC)c1C(=O)NNC(=O)c1cccnc1
0.2%,-8%,.,.,CC1=CC(C)(C)NC(=S)N1c1ccc(Cl)cc1
4.9%,-3%,0%,0,O=[N+]([O-])c1cc(-c2nc(-c3ccncc3)no2)cc([N+](=O)[O-])c1
7.6%,0%,-2%,7,O=C(O)c1ccc(CSc2nnc(-c3ccco3)o2)cc1
-0.2%,2%,-4%,-4,CCN(CC)C(=O)Cn1cc(C(=O)C(=O)NCc2cccs2)c2ccccc21
4.2%,2%,-5%,4,c1cn(CC2(Cn3ccnc3)COC2)cn1
-0.3%,0%,-6%,0,CSc1ccc(S(=O)(=O)N(C)Cc2ccccc2)cc1
0.5%,?,-49%,5,Fc1ccc(Nc2cccc3nccnc23)cc1
0.5%,0%,.,.,CC(C)(C)c1ccc(C(=O)Nc2cccc(S(=O)(=O)NC3=NCCC3)c2)cc1
0.1%,1%,-21%,2,Cc1ccc(NS(=O)(=O)c2cc(C(=O)NCc3ccccn3)ccc2Cl)cc1
-4.4%,34%,.,.,O=C1N[C@@H](Cc2c[nH]c3ccccc23)COC(=O)[C@@H](Cc2ccc(F)cc2)CC/C=C/C[C@@H]1CC(=O)N(CCO)Cc1ccccc1
0.4%,0%,-16%,-4,O=C(CSCC(=O)Nc1ccc2ccccc2c1)NCc1ccccc1
0.8%,?,0%,.,CCc1ccc(S(=O)(=O)Nc2nnc(N)s2)cc1
3.3%,-2%,-15%,3,Cc1nnc2c(NC(C)C)nc3ccccc3n12
-3.9%,1%,-53%,.,CC(=O)N/N=C\c1cccc(OC/C=C/c2ccccc2)c1
6.2%,34%,.,.,CCc1cccc(C)c1NC(=O)CSc1nnc(Cc2csc(C)n2)o1
-1.5%,-28%,2%,-15,COc1ccc(OCc2nc3ccc(S(=O)(=O)Nc4ccccc4Cl)cc3[nH]2)cc1
-0.5%,-9%,-1%,13,COc1cccc(C(C)NC(=O)c2c(F)cccc2Cl)c1 (stereo not given)
-1.3%,-6%,-5%,.,O=C(Nc1ccc(F)cc1)c1cccnc1Oc1ccccc1
?,-13%,-3%,5,COc1ccc(CN2CCNC(=O)C2CC(=O)NCc2csc(C(C)C)n2)c(OC)c1 (stereo not given)
-5.1%,6%,.,.,C[C@]12c3[nH]c4ccc(Cl)cc4c3CCN1C(=O)[C@@H](CC(=O)NCc1ccco1)C[C@@H]2C(=O)N1CCOCC1
1.5%,-1%,0%,3,CCOC(=O)C1[C@H]2C(=O)N(CCCOC)C[C@]23C=C[C@H]1O3 (stereo not given in full)
0.2%,-3%,-9%,5,Clc1ccc(OCCCCSc2ncccn2)cc1
0.3%,12%,0%,.,Cc1ccc(C(=O)OCC(=O)NC2CCCC2)cc1C
-0.2%,-9%,-1%,-11,C=C(Cl)COC(=O)C1C2C=CC(C2)C1C(=O)O (stereo not given)
-2.3%,-2%,-3%,4,O=C1CCN(C(=O)CSc2ccc(Cl)cc2)N1
2.5%,0%,-23%,-2,CCCCOC(=O)Nc1nc(C)c(C(=O)OCC)s1
0.7%,2%,1%,1,CCOc1ccc(NC(=O)c2ccc(NC(=S)NC3CC3)cc2)cc1
-0.9%,7%,0%,-7,O=C(/C(=N\O)n1cncn1)c1ccc(Br)cc1Br
1.3%,2%,2%,-6,NC(=O)COC(=O)CCCc1nc2ccccc2s1
1.5%,10%,-1%,.,CC(C)(C)c1ccc(C(=O)NCc2nnc(SCC(=O)NC3CCCC3)o2)cc1
0.5%,7%,-1%,.,COc1ccccc1CNC(=O)CN(C)S(=O)(=O)c1ccc(F)cc1
0.0%,-2%,-51%,-10,CCOc1ccc(N/C(C)=C/C(=O)c2ccc3c(c2)OCCO3)cc1
4.1%,7%,4%,-3,COc1ccc(/C=C(\NC(=O)c2ccccc2)C(=O)OC[C@@H]2CCC[N+]3(C)CCCCC23)cc1OC (stereo not given in full)
3.1%,-4%,9%,-3,O=C(c1cnn(C(=O)COc2ccccc2F)c1)c1cc(F)ccc1O
-1.5%,?,.,.,O=C(Cc1ccccc1F)Nc1cc(S(=O)(=O)N2CCOCC2)ccc1N1CCOCC1
.,.,2%,6,CC(/C(O)=C(\C#N)c1nc2ccccc2n1C)N1C(=O)c2ccccc2C1=O (stereo not given)
-3.5%,14%,-21%,.,Cc1csc(Nc2nc(N)c(C(=O)Nc3cc(Cl)ccc3F)o2)n1
0.0%,7%,20%,.,CC(C)(C)OC(=O)NCc1ccc(CNC(=O)c2[nH]cnc2C(=O)NCC(=O)OCc2ccccc2)cc1
1.5%,0%,0%,.,CCC(=O)Nc1nnc(SCC(=O)Nc2cccc(Cl)c2)s1
-1.6%,0%,12%,.,CC(C)(C)c1ccc(-n2ncc3c2CCCC3NC(=O)C2(C(N)=O)CC2)cc1 (stereo not given)
-0.4%,-5%,1%,4,CCN(CC)CCN(Cc1cc2cc(C)c(C)cc2[nH]c1=O)C(=S)NCc1ccco1
4.6%,-7%,.,.,Cc1ccc(OCCC(=O)Nc2cc(S(=O)(=O)N3CCOCC3)ccc2N2CCCC2)cc1
0.5%,-2%,-4%,8,COc1ccc(CCNC(=O)CCCN2C(=O)c3ccccc3C2=O)cc1
-0.8%,-17%,-1%,.,O=C(NCCN1CCN(c2ccccc2)CC1)c1cccc(Cl)c1
-0.5%,-5%,-2%,.,COc1cc(C(=O)NC2CCN(CC(=O)NC3CCCCC3)CC2)cc(OC)c1OC
0.4%,-11%,-10%,.,COc1ccc(C(=O)CSc2nc(C)cc(C)n2)cc1C
-0.2%,2%,-3%,1,CC(=O)Nc1ccc(C2=NN(CC#N)C(=O)SC2)cc1
0.1%,5%,.,.,CCCCCN(C(=O)CCC(=O)OCC(=O)N(CC#N)c1ccccc1)c1c(N)n(CCCC)c(=O)[nH]c1=O
-0.6%,2%,2%,.,O=C1CCN(Cc2ccccc2)N1
-1.3%,5%,-18%,-6,CCc1ccc(C2CC(=O)NC(SCC(=O)OC(C)C)=C2C#N)cc1 (stereo not given)
-3.6%,4%,-27%,.,CN(C(=O)CNC(=O)c1ccc(Br)o1)C1CCCCC1
0.2%,0%,-5%,4,COc1ccc(NC(=O)C2CCN(S(=O)(=O)c3c(C)noc3C)CC2)cc1Cl
-1.9%,2%,-3%,1,CCOC(=O)c1nnsc1-c1ccc(-c2snnc2C(=O)OCC)cc1
3.4%,43%,.,.,Cc1cccc(C)c1OCC(=O)Nc1cccc(S(=O)(=O)N2CCCC2)c1
-4.4%,5%,-1%,-2,Cc1ccc(C)n1CCN1CCN(C(=O)c2ccco2)CC1
2.8%,6%,-6%,.,CC(=O)Nc1ccc(N2C(=O)CC(Sc3nccc(C)n3)C2=O)cc1 (stereo not given)
-0.9%,-9%,-3%,.,CCCc1nn2c(=O)cc(CSCC(=O)Nc3ccc(F)cc3)nc2s1
-1.0%,-2%,1%,-5,CCOC(=O)c1nnn(CC(=O)Nc2ccccc2OC)c1C(=O)OCC
-2.0%,10%,3%,-2,O=S(=O)(c1cccc(-c2nnc3n2CCCCC3)c1)N1CCCC1

# The results go on.
Rango-impB inh,Rango dissoc inh,miR-21 reporter,GLA inh pH 4.5,mol
1.1%,29%,-1%,.,O=C(C[n+]1cccc(O)c1)NCc1ccc(Cl)cc1
0.5%,11%,-4%,1,CCOC(=O)N1CCN(C(=O)c2cc(C)no2)CC1
1.8%,-2%,-3%,-3,CCOC(=O)Nc1ccc(S(=O)(=O)NC2CCCCC2)cc1
?,?,2%,-8,C=CCSc1nc(N2CCOCC2)c2c(c1C#N)CC(C)(C)N(C)C2

# 6 structures from above, ordered by count of non-hydrogen atoms, descending.
Rango-impB inh,Rango dissoc inh,miR-21 reporter,GLA inh pH 4.5,mol
3.4%,43%,.,.,Cc1cccc(C)c1OCC(=O)Nc1cccc(S(=O)(=O)N2CCCC2)c1
-0.9%,-9%,-3%,.,CCCc1nn2c(=O)cc(CSCC(=O)Nc3ccc(F)cc3)nc2s1
?,?,2%,-8,C=CCSc1nc(N2CCOCC2)c2c(c1C#N)CC(C)(C)N(C)C2
-2.0%,10%,3%,-2,O=S(=O)(c1cccc(-c2nnc3n2CCCCC3)c1)N1CCCC1
-4.4%,5%,-1%,-2,Cc1ccc(C)n1CCN1CCN(C(=O)c2ccco2)CC1
0.5%,11%,-4%,1,CCOC(=O)N1CCN(C(=O)c2cc(C)no2)CC1
